Mtb bLac sens: beta-lactam sensitization of Mtb H37Rv; M. tuberculosis H37Rv growth with meropenem, percent inhibition; hits of this screen are not shown here; inhibition, % at 25 µM; actives 0.27% (n = 330,000);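 active means about 74% or more and at least 40 points above the plate without the antibiotic, then above 30% in a dose series; inconclusive means first-round hits that could not be retested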;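 further: growth measured after seven days incubation then overnight dye step; 0% = bacteria only wells and 100% = bacteria with antibiotic; twin plates without the antibiotic show which effects depend on it; some results filed as inactive read as strong as hits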
Mtb H37Rv: M. tuberculosis H37Rv growth inhibitors, H37Rv strain (AID 1626). M. tuberculosis H37Rv growth inhibition; higher % means a stronger effect. inhibition, % at 10 µM, or IC50 in µM where a hit was titrated. actives 0.95% (n = 220,000);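 active means confirmed in a dose series; inconclusive means inhibition above 80% but not taken into the dose series; inactive means below 80% or under 30% at every dose of the series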;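 further: bacteria incubated seven days before Alamar blue readout; 0% = bacteria only wells and 100% = bacteria with antibiotic wells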
YopH PTP inh: blocks Yersinia enterocolitica YopH tyrosine phosphatase. fluorescence Ex485/Em525. inhibition, %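 (about 10 µM by stock and volumes)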. actives 0.16% (n = 140,000);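 active means inhibition of 50% or more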;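 further: controls were vehicle for no effect and minimum signal wells for full effect; inactives centre near -20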
Arbovirus anti: antivirals against arbovirus infection. inhibition, % at 10 µM. actives 0.37% (n = 200,000). arbovirus infection cell-based antiviral screen;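 active means inhibition from about 30%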;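 further: bluetongue infection of BSR cells; cell survival read as ATP light after 72 h; 0% = infected wells without compound and 100% = uninfected wells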
RecA splice inh: inhibitors of M. tuberculosis RecA intein splicing; inhibition, %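 (about 9 µM by stock and volumes)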; cell-free RecA intein splicing, fluorescence; actives 0.75% (n = 290,000); P9WHJ3; in the data active means inhibition above about 30%; inconclusive means no clear call, values can overlap the other calls;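 further: 0% = vehicle wells and 100% = reference inhibitor control wells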
Target sequence (P9WHJ3 whole entry, looked up, canonical isoform): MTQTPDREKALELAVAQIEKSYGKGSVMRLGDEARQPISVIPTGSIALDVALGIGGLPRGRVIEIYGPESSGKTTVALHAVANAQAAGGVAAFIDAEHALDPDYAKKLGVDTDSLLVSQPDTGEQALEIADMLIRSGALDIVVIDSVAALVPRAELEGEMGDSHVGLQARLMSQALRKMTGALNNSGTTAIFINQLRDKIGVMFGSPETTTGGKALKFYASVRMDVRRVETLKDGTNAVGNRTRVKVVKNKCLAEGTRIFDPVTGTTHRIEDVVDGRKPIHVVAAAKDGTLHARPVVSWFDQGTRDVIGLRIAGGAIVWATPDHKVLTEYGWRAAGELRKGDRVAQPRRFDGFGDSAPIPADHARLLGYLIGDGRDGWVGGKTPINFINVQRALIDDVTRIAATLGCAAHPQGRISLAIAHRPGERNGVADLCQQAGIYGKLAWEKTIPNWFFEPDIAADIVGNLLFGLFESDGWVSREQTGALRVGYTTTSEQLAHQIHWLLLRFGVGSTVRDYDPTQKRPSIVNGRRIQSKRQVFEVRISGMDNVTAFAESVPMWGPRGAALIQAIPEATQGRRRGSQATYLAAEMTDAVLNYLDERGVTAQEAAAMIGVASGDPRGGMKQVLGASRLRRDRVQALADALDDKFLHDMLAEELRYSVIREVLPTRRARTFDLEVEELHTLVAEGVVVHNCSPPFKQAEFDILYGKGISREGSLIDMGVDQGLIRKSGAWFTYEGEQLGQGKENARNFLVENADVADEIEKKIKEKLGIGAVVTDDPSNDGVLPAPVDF
Arbovirus anti repeat: second read-out of Arbovirus anti, no call of its own (marks repeat the call); inhibition, %; measured here: 10K subset replicate screen; many hits read low in the repeat;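 first of two repeat runs on a subset; 0% = infected and 100% = uninfected wells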
* = called active by the depositor; ? = inconclusive; nt = not tested or not shown. Not all compounds are listed; the hit share may differ from the screen's.

SMILES	Mtb bLac sens	Mtb H37Rv	YopH PTP inh	Arbovirus anti	RecA splice inh	others
CCOC(=O)c1[nH]c2ccc(Br)cc2c1NC(=O)CCN1CCOCC1	0	-7%	nt	nt	0.0
Cc1ccccc1S(=O)Cc1ccc(C(=O)NC2CCN(Cc3ccccc3)CC2)o1 (stereo not given)	-3	nt	nt	nt	-0.6
Cc1cccc(-c2noc(CCCC(=O)Nc3ccc(C(N)=O)cc3)n2)c1	1	1%	-16	-3	-3.5
CC(C)(C)c1ccc(/C=C(\c2nc3ccccc3[nH]2)S(=O)(=O)c2ccccc2)cc1	0	nt	nt	nt	82*
CCN1/C(=C/C(C)=C/c2sc3ccccc3[n+]2CC)Sc2ccccc21	99	?	nt	-32	12
CCn1cc(C(=O)O)c(=O)c2cc(F)c(N3CCN(C(=S)NC(=O)c4c(OC)cccc4OC)CC3)cc21	68	nt	nt	nt	-3.3
COc1cccc(-n2c(C)c(C(C)=O)c(C(C)=O)c2C)c1	-12	-2%	-13	-4	-0.5
CCc1nc(NCCO)c(C#N)c2c1CCCC2	-8	-14%	nt	nt	0.4
CCOC(=O)CNc1nc(-c2ccncc2)nc2ccccc12	6	3%	-37	7	nt
Cc1ccc(C(=O)N/C(=C/c2ccc(-c3cccc([N+](=O)[O-])c3)o2)C(=O)NC(C)(C)C)cc1	11	18%	-1	13	1.5
O=C(Nc1cccc(C(F)(F)F)c1)Oc1ccccc1N1CCOCC1	5	5%	nt	nt	0.1
O=C(/C=C/c1ccc2c(c1)OCO2)Nc1c(C(=O)O)[nH]c2ccccc12	?	-4%	-7	12	0.9
O=C(CC(=O)N/N=C/c1ccccc1O)NCc1cccnc1	-2	0%	-45	-22	-7.5
c1cncc(Oc2cccc(Oc3cccnc3)c2)c1	7	4%	-170	1	nt
FC(F)(F)c1cccc(Cc2noc(CN3CCC(c4ccncc4)CC3)n2)c1	4	4%	nt	9	1.2
O=C(/C=C/N1CCOCC1)c1cc2ccccc2o1	-3	3%	-20	6	1.1
CNC(=S)NCCCc1ccccc1	1	0%	nt	0	-3.3
COc1ccc(C2C(C#N)=C(N)OC(C(C)(C)C)=C2C#N)cc1OC (stereo not given)	-4	-1%	-33	2	-2.4
CC(=O)Nc1ccc(C(=S)NCCCO)cc1	-2	6%	nt	1	-1.3
O=C1c2cc(N3CCCC3)c([N+](=O)[O-])cc2C(=O)N1c1ccccc1	-8	1%	-33	-1	-4.7
CC1(C)CC2CC(C)(CN2S(=O)(=O)c2ccc(C(=O)Nc3cccc(S(=O)(=O)N4CCOCC4)c3)cc2)C1 (stereo not given)	1	4%	-30	-21	2.0
COCCN(CCOC)S(=O)(=O)c1ccc(C(=O)Nc2nc(C)c(C(C)=O)s2)cc1	-7	-6%	-60	10	0.8
CCn1ncc(Br)c1C(=O)Nc1sc2c(c1C(N)=O)CCC2	-5	-3%	-22	-3	-1.1
CCOC(=O)C1(CC2CCCCO2)CCN(C(=O)Nc2ccccc2SC)CC1 (stereo not given)	-2	7%	nt	0	0.6
COC(=O)c1nn(-c2ccc(OC)cc2)c(=O)cc1Oc1cccc(Cl)c1	-7	-9%	-28	4	-0.8

Next part
SMILES	Mtb bLac sens	Mtb H37Rv	YopH PTP inh	Arbovirus anti	RecA splice inh	others
COC(=O)c1ccccc1NC(=S)N1CCN(c2ccccc2)CC1	-1	nt	nt	nt	-3.5
COc1ccc(NC(=S)SC)cc1OC	2	-6%	-35	-1	5.7
COc1ccc(N2CCN(C(=O)c3cccnc3SCc3cccc(Br)c3)CC2)cc1	-8	-1%	nt	18	7.4
Cc1ccc(NC(=O)CSc2nc(N)c3cc4c(nc3n2)CCCC4)cc1	4	2%	-13	-11	-3.9
Cc1cccc(OCCn2c(=O)n(C)c3ccccc32)c1	0	2%	-34	-1	5.0	Arbovirus anti repeat=6
O=C(CN1CCN(S(=O)(=O)c2ccc(Br)cc2)CC1)Nc1ccc(F)cc1F	1	-1%	-27	8	0.4
O=S(=O)(NCc1ccccc1)c1ccc(-c2cnc(C3CC3)o2)cc1	4	nt	nt	nt	-8.6
COc1ccc(/C=C/C(=O)Oc2cccc(/C=N/NC(=O)COc3c(C)cccc3C)c2)cc1	-5	-4%	-33	-10	-2.1
BrC(=C\c1ccccc1)/C=N/Nc1nc(N2CCOCC2)nc(N2CCOCC2)n1	53	66%	-4	6	-1.4
CCN(CC(=O)Nc1c(F)cccc1F)C(=O)c1cccc(-n2cccc2)c1	-5	nt	nt	nt	1.5
COc1ccc(-c2nc(C)c(C(C)=O)n2O)cc1OC	-5	-7%	20	-7	-2.6	Arbovirus anti repeat=3
O=C(COC(=O)c1cccnc1SCC(=O)NCc1ccccc1)NCc1ccccc1	-5	-11%	-7	0	-0.3
Cn1nccc1CNC(=O)c1ccnn1C	4	-1%	-41	4	0.0
CCOC(=O)c1c(-c2ccccc2)oc2ccc(OCC(=O)O)cc12	-12	-6%	nt	nt	-1.5
Cc1c(NC(=O)C2CCN(S(=O)(=O)c3cccs3)CC2)c(=O)n(-c2ccccc2)n1C	-5	-10%	nt	nt	nt
O=C(CCn1cncn1)N1CCCC(N2CCN(c3ccc(F)cc3)CC2)C1 (stereo not given)	-4	nt	nt	nt	-1.2
Cc1nn(-c2ccccc2)c(C)c1C(=O)OCC(=O)N(C)c1c(N)n(Cc2ccccc2)c(=O)[nH]c1=O	5	nt	nt	nt	0.5
O=C(NNC(=O)c1cc(-c2ccccc2)nc2ccccc12)Nc1cccc(Cl)c1	98	26%	-26	-16	16
Cc1cc(C)c(NC(=O)COC(=O)/C=C/c2cccc(C(F)(F)F)c2)c(C)c1	8	-2%	-25	10	-2.3
Cc1onc(-c2c(Cl)cccc2Cl)c1C(O)c1ccccc1 (stereo not given)	-3	nt	nt	nt	-1.6
Cc1ccc(C(=O)Nc2cccc3ccccc23)cc1	96	nt	nt	nt	1.5
Brc1ccc(Cn2c(-c3ccc(Br)o3)nc3ccccc32)o1	nt	8%	-31	-3	30*
CCCCNc1nc2c(-c3ccccc3)nnn2c2ccccc12	-2	nt	nt	nt	-17
O=C(c1cccc([N+](=O)[O-])c1)c1ccc2c(c1)C(=O)N(c1c[nH]c(=O)[nH]c1=O)C2=O	-9	-3%	nt	-1	-0.6
CN(CCNC(=O)c1cc2c(=O)n(C)c3ccccc3c2n1C)Cc1ccccc1	-6	3%	-6	-10	0.9	Arbovirus anti repeat=-15

The listing continues:
SMILES	Mtb bLac sens	Mtb H37Rv	YopH PTP inh	Arbovirus anti	RecA splice inh	others
COc1ccc(Cn2nnnc2CN2CCC(c3nc4ccccc4s3)CC2)cc1	-7	5%	-32	1	27
Cc1ccc(OCCn2c(=O)sc3ccccc32)cc1	1	13%	-15	-17	9.8
CCCn1c(SCC(=O)Nc2nnc(CC)s2)nnc1-c1ccco1	-3	nt	-51	7	-1.9
COc1ccc(CCN(Cc2cccs2)S(=O)(=O)c2ccc(C(=O)O)cc2)cc1OC	4	-4%	nt	-4	1.0
CCOC(=O)NCC(C)(C)CNC(=O)OCC	8	-8%	-7	3	-3.1
O=C(COc1cccc2ccccc12)N/N=C/C=C/c1ccccc1	6	5%	-14	-13	nt
COc1ccccc1C(=O)Nc1cc2c(cc1C(=O)O)OCCCO2	13	nt	nt	nt	-0.2
CCCCc1nnc(NC(=O)c2cccc(S(=O)(=O)N3CCN(C)CC3)c2)s1	-2	nt	nt	nt	3.4
CCn1cc(C(=O)NCc2ccco2)c(=O)c2ccc(C)nc21	-5	nt	nt	nt	-0.8
O=C(O)c1cc(-c2cccc([N+](=O)[O-])c2)n[nH]1	-1	0%	nt	2	1.6
COc1ccc(-n2c(SCC(=O)N(C)c3ccccc3)nc3c([nH]c4ccccc43)c2=O)cc1OC	1	nt	nt	nt	-3.0
CC1CCCN(S(=O)(=O)c2ccc(NC(=O)Cn3nnc(-c4ccccc4F)n3)cc2)C1 (stereo not given)	14	-4%	-44	-10	1.1
N/C(=N\OC(=O)/C=C/c1ccccc1)c1ccccn1	45	3%	nt	7	-2.1
COC(=O)CCC/C=C1\SC[C@@H](NC(=O)c2ccccc2)C1NC(C)=O (stereo not given in full)	5	-5%	-33	5	-0.9
COc1ccccc1C1N(c2ccc(Cl)cc2)C(=O)C2CCCN21 (stereo not given)	3	-13%	-17	15	0.7
CC1CCCC(NC(=S)NC(=O)c2ccccc2Br)C1C (stereo not given)	3	13%	-6	-12	15
CC(=O)c1cccc(OCCN2C(=O)NC(C)(C)C2=O)c1	-3	-4%	-20	3	-3.3
CCOc1ccc(CN(C)CC(=O)NCc2ccccc2)cc1	5	5%	nt	nt	-1.0
COc1cc(CN2CCCCCC2)cc(OC)c1O	-3	nt	nt	nt	-4.0
Cc1nc(NC(=O)c2cccc(-c3cc4ccccc4oc3=O)c2)ccc1Br	3	-24%	1	-12	-2.1
O=C(c1cc(Br)ccc1Cl)N1CCN(c2ccccn2)CC1	-3	nt	nt	nt	-0.9
C/C(=N\NC(=O)c1c[nH]c2ccccc12)c1ccc(C)s1	2	nt	nt	nt	-2.6
COc1ccc(N2CCN(S(C)(=O)=O)CC2)cc1	3	-7%	-7	9	-4.7
CCN1CCN(c2ncnc3scc(-c4ccc(OC)cc4)c23)CC1	-3	nt	nt	nt	2.3
O=[N+]([O-])c1ccc(-c2nc(Nc3ccc(O)cc3)c3ccccc3n2)cc1	16	nt	nt	nt	6.4

Of the compounds above, these contain a Cl atom:
SMILES	Mtb bLac sens	Mtb H37Rv	YopH PTP inh	Arbovirus anti	RecA splice inh	others
COC(=O)c1nn(-c2ccc(OC)cc2)c(=O)cc1Oc1cccc(Cl)c1	-7	-9%	-28	4	-0.8
O=C(NNC(=O)c1cc(-c2ccccc2)nc2ccccc12)Nc1cccc(Cl)c1	98	26%	-26	-16	16
Cc1onc(-c2c(Cl)cccc2Cl)c1C(O)c1ccccc1 (stereo not given)	-3	nt	nt	nt	-1.6
COc1ccccc1C1N(c2ccc(Cl)cc2)C(=O)C2CCCN21 (stereo not given)	3	-13%	-17	15	0.7
O=C(c1cc(Br)ccc1Cl)N1CCN(c2ccccn2)CC1	-3	nt	nt	nt	-0.9

Further records:
SMILES	Mtb bLac sens	Mtb H37Rv	YopH PTP inh	Arbovirus anti	RecA splice inh	others
C=C(C)CSc1nc2nc(C)cc(C)n2n1	-9	-13%	-5	16	-0.1
CCN(CC(=O)NCc1ccc(Cl)cc1)C(=O)COc1cccc(Cl)c1	-6	nt	nt	nt	3.7
COc1ccc(N2CCN(c3ccc(NC(=O)/C=C\C(=O)O)cc3)CC2)cc1	0	nt	nt	nt	-2.4
CCn1c(CCn2ccnc2C)n[nH]c1=S	-6	-3%	22	4	nt
O=C(O)CN1CCCCCC1=O	0	-6%	nt	10	-0.9
Cc1oc(-c2cccs2)nc1CS(=O)CC(=O)NC1CCCCCC1 (stereo not given)	-4	1%	-17	-3	4.8	Arbovirus anti repeat=-1
Cc1cccc(NC(=O)Cn2c(=O)n(Cc3ccco3)c(=N)c3c4c(sc32)COC(C)(C)C4)c1	2	14%	-1	-9	-2.1
CC(=O)NCC(=O)OCN1C(=O)c2ccccc2C1=O	1	-8%	-7	3	2.5
CCCNc1nc(Cl)nc(NC(C)(C)C)n1	7	5%	nt	-3	-1.2
Cc1ncccc1C(=O)N1CCCC(CNC(=O)C2(c3ccc(Cl)cc3)CC2)C1 (stereo not given)	-3	-1%	nt	2	1.0
Cc1cc(=O)oc2cc(NC(=O)c3cc4ccccc4o3)ccc12	3	nt	2	-9	-2.8
CCOP(=O)(OCC)C(Nc1ccccc1)c1ccco1 (stereo not given)	-4	3%	nt	2	2.6
Cc1cc(C)nc(N(C#N)Cc2cccc(Cl)c2)n1	-4	-5%	nt	-6	4.2
COc1cc(/C=C2/NC(=O)NC2=O)cc(Br)c1OCc1ccccc1	-12	-7%	nt	-8	0.7
COc1ccc(S(=O)(=O)N(C)CC(=O)NCc2ccc3c(c2)OCO3)cc1	-1	nt	nt	nt	-1.3
CCN(CC(=O)Nc1ccc(C(=O)OC)cc1)C1CCCCC1	-1	nt	nt	nt	0.0
Cc1snc(SCC(=O)c2ccc([N+](=O)[O-])cc2)c1C#N	nt	7%	nt	-5	nt
COc1ccccc1NC(=O)c1sc2ncn(Cc3cccc4ccccc34)c(=O)c2c1C	52	4%	-15	-1	1.6
COC(=O)C1=C(N)Oc2cc(C)n(Cc3cccnc3)c(=O)c2C1c1cc(OC)ccc1OC (stereo not given)	-14	-9%	9	0	0.9
O=C(N/N=C/c1cc([N+](=O)[O-])ccc1Cl)c1cnccn1	25	-4%	nt	-3	1.4
CCOc1ccc(CCNC(=O)CS(=O)Cc2nc(-c3ccc(C)cc3)oc2C)cc1OCC (stereo not given)	4	nt	nt	nt	0.0
CCN(CC)C(=O)CSc1nnc(CSc2ncccn2)n1C	-5	-9%	nt	nt	0.3
Cc1nn(CC(=O)Nc2ccc3c(c2)nc(CN2CCCCC2)n3C)c(=O)c2ccccc12	0	-5%	-3	-1	4.5
